Bioassay records deposited in PubChem BioAssay by several laboratories.
FGF22 binding: shifts melting point of recombinant human FGF22; calls only at 9.99 µM; AID 651658; 340,000 tested, 1.5% active; Q9HCT0; recombinant FGF22 thermal shift, SYPRO orange fluorescence; percent of sucrose octasulfate shift, DMSO zero;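 active = melting point raised past a set limit in the mean and every replicate; three in four hits are not shown here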
Target sequence (Q9HCT0 whole entry, looked up): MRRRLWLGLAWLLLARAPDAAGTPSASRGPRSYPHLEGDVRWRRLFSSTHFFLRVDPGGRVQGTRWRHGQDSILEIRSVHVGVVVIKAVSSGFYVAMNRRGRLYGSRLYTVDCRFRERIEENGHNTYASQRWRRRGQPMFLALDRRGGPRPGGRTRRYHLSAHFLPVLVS
UCH37 DUB inh: human UCH37 deubiquitinating enzyme inhibition | 330,000 tested, 0.33% active | inhibition, % (concentration not given with the values) | purified proteasome/UCH37, Ub-AMC cleavage fluorescence;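 active = mean of two replicates above 20%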;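 also: 0% = compound-free wells with enzyme and 100% = wells lacking proteasome; stock transfer was 100 nL into about 20 µL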
Target sequence (Q9Y5K5 whole entry, looked up): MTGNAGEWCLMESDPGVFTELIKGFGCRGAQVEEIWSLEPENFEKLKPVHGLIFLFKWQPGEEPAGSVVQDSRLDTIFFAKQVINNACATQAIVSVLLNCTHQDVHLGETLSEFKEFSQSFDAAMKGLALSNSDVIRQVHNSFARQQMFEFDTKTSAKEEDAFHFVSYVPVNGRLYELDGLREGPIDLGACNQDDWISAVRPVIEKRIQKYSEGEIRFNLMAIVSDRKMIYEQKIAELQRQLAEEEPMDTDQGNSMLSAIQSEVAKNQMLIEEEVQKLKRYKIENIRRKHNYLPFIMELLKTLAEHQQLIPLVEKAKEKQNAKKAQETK
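Reagent: Ub-AMC substrate; assay system: Proteasome-associated human UCH37 deubiquitinase; controls: no-proteasome and no-compound wells; read-out: % inhibition of Ub-AMC cleavage fluorescence; timing: 30 min preincubation with enzyme, 25 min cleavage at room temperature; signal: AMC fluorescence from Ub-AMC cleavage, excitation 355 nm, emission 460 nm; buffer or medium: Tris-HCl pH 7.4 plus ovalbumin, ATP-MgCl2, DTT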
Beta apoptosis: beta cell apoptosis inhibition; INS-1E cytokine-induced death, ATP luminescence, 48 h; percent of positive-control rescue, neutral wells zero; protection from apoptosis, % (no concentration beside the values); 300,000 tested, 0.8% active; AID 435005;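 active = all replicates at 75% or more, or half of them and the mean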;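 also: 0% = cytokine-treated negative control wells and 100% = positive control rescue; higher means more ATP so stronger rescue from cytokine killing; wells of about 40 µL received 100 nL stock; the first replicate is given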
Bfl-1 A1 inh: inhibitors of the anti-apoptotic protein A1, read as caspase activation | MEF A1-2A-BIM cells, Caspase-Glo 3/7 luminescence, 3 h; percent of clofoctol response, vehicle zero | caspase activation, % (concentration not given with the values) | 330,000 tested, 0.066% active;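 active = over half of replicate activation scores above 10%, or exactly half above 10 with the replicate mean above 10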;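 also: wells of about 30 µL received 50 nL stock; many hits fall short of the cut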
T cruzi inh: blocks replication of Trypanosoma cruzi. T. cruzi beta-gal in NIH3T3, luminescence, 90 h. 300,000 tested, 1.4% active. AID 1885. inhibition, % (test concentration not listed);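 active = mean inhibition across valid replicates above about 55%, limit read from the data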;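 also: signal also drops with host cell toxicity which is not excluded here; 0% = plate median of DMSO wells and 100% = zero luminescence signal; higher percent means less beta-gal luminescence so fewer parasites; stock transfer was 50 nL into about 50 µL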
rRNA inh HTS: inhibits bacterial ribosomal RNA function over humanized ribosomes | E. coli WT GFP vs humanized-ribosome RFP mutants, fluorescence, 24 h; active compounds read low; DMSO median 0, no signal -100 | AID 720706 | GFP signal change (wild-type ribosome), % (concentration not given with the values) | 350,000 tested, 1.6% active;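 active = significant combined selectivity score with lowered wild-type GFP, culture density cut under 30%, mutant RFP and density less affected; inactive = any of these conditions unmet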; also: one replicate is shown; some compounds called inactive have numbers as strong as hits
Ecoli growth: blocks Escherichia coli growth; OD600, 23 h; active compounds read low; OD600 absorbance (no concentration beside the values); 330,000 tested, 0.21% active; AID 1053175;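 active = OD600 absorbance below the run mean of sample wells minus 3.6 SD, in any replicate, cut at about 0.56 in these data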;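 also: stock transfer was 300 nL into about 60 µL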
MLL AF4-AF9 inh: inhibitors of human MLL-AF4/AF9 interaction | 350,000 tested, 0.47% active | AID 651704 | inhibition, % at 10 µM | P42568 | AlphaScreen, biotin-AF4 peptide binding to FLAG-AF9;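 active = every replicate reaching a set inhibition limit, whatever the replicate mean, cut at about 25% in these data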;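 also: 0% = plate neutral control median and 100% = total signal loss; the record names both 10 and 1 µM as test concentration; the first replicate is given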
Target sequence (P42568 whole entry, looked up): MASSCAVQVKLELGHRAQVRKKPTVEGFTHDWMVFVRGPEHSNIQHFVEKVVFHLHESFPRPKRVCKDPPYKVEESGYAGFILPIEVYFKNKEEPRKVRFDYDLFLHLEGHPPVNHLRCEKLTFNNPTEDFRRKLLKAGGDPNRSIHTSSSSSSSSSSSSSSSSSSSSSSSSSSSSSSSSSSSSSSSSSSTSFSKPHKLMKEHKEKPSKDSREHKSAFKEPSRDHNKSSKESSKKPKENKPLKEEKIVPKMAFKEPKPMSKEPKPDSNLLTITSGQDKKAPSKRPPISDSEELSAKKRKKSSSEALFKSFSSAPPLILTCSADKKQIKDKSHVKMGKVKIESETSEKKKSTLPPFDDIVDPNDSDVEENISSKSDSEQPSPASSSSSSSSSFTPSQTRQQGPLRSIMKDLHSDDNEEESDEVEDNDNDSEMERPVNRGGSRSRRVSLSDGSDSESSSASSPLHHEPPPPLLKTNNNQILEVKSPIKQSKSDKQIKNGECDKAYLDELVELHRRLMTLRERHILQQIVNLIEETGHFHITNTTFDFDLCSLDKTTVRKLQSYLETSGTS
rRNA inh HTS OD600: recorded beside rRNA inh HTS, whose call it bears; OD600 change, %; measured here: OD600 growth;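 optical density of the mix in the first replicate; 0 = DMSO median and -100 = no signal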
rRNA inh HTS RFP: also measured in rRNA inh HTS; calls as there; RFP signal change, %; measured here: RFP humanized mutant strains;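 first replicate; 0 = DMSO median and -100 = no signal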
* marks the source's active call; other numbers are inactive results; i = inactive; . = no result given.

Value order: MLL AF4-AF9 inh	rRNA inh HTS	rRNA inh HTS RFP	rRNA inh HTS OD600	UCH37 DUB inh	Beta apoptosis	FGF22 binding	T cruzi inh	Bfl-1 A1 inh	Ecoli growth
Nc1cccnc1Sc1ccccc1
    -3.0	8	-1.1	8	-16	-12	i	-17	0.0	0.68
Cc1cccc(Oc2nc(CN3CCOCC3)nc3sc4c(c23)CCCC4)c1
    .	.	.	.	3.6	11	.	2	1.9	0.66
CCOc1ccc(N(CC(=O)Nc2ccc3c(c2)OCCO3)S(=O)(=O)c2c(C)noc2C)cc1
    1.5	5	4.0	6	2.6	8	i	13	0.1	0.7
O=C(Nc1cc(Br)ccc1O)C1CC(c2ccccc2Cl)=NO1 (stereo not given)
    -2.7	-19	-0.3	-20	5.4	-5	i	9	0.5	0.68
COc1cccc(Nc2ncnc3sccc23)c1
    -3.0	5	-5.6	7	3.4	-1	i	-9	-0.6	0.66
CCCNC(=O)c1cc(S(=O)(=O)N2CCc3ccccc32)ccc1F
    4.8	21	-4.3	9	-0.9	5	i	17	0.5	0.72
CCC(c1nnnn1CS(=O)(=O)c1ccc(C)cc1)N1CCN(c2nc3ccccc3s2)CC1 (stereo not given)
    -13	2	4.4	-1	7.0	25	i	75*	0.2	0.74
C=CCNC(=O)COc1ccccc1C#N
    -0.3	18	0.3	15	3.6	-2	i	-6	0.0	0.69
O=C(COc1ccc([N+](=O)[O-])cc1)Nc1ccncc1
    -0.3	5	-1.6	1	2.7	17	i	35	0.7	0.65
Cc1ccc(NC(=O)C2CCCN2S(=O)(=O)c2ccc(-c3ccc(=O)[nH]n3)s2)c(C)c1 (stereo not given)
    -0.6	-4	-0.2	-7	-0.1	-2	i	7	1.0	0.64
CCn1nc(C(=O)NNC(=O)c2ccc(OC(F)F)cc2)c2ccccc2c1=O
    0.3	-3	6.9	-12	4.3	0	i	.	-1.4	0.72
CC1(C)Cc2c(cnn2-c2ccc(F)cc2)C(NC(=O)CCCN2CCCCC2=O)C1 (stereo not given)
    0.1	-2	1.8	6	2.2	1	i	11	-0.3	0.74
COc1cc(C(=O)NCCN2CCN(C(=O)c3cc(OC)c(OC)c(OC)c3)CC2)cc(OC)c1OC
    -1.5	8	-1.8	12	3.8	-8	i	-15	0.7	0.73
O=C(NC1CC2CCCC(C1)N2S(=O)(=O)c1ccccc1)c1ccco1 (stereo not given)
    .	.	.	.	1.8	2	.	-10	0.5	0.7
Cc1nnc(SCC(=O)Nc2ccc(OC(F)F)c(Cl)c2)n(N)c1=O
    -14	-11	0.9	-13	5.2	4	i	.	-0.3	0.67
CCOc1ccc(CC(=O)NNC(=S)NC2CCCCC2)cc1OCC
    .	.	.	.	-2.6	-1	.	-2	-0.3	0.76
CCC1CCC2(CC1)NC(CO)(CO)CO2 (stereo not given)
    .	.	.	.	3.8	-3	.	12	1.3	0.74
Cc1cccc(Cc2c(C)nc3nc(SCC(=O)O)nn3c2C)c1
    -2.4	1	-4.4	-6	0.7	0	i	3	0.2	0.69
Cc1ccccc1CNC(=O)CC1C(=O)NCCN1Cc1c(F)cccc1Cl (stereo not given)
    -0.5	-7	0.3	-16	1.5	-7	i	9	0.3	0.67
CCN(CC)CCN(C)C1CCC(c2ccccc2)CC1 (stereo not given)
    -4.0	9	-4.3	7	1.9	-2	i	.	-0.3	0.69
COc1ccccc1CN1CC(C(=O)NCCn2ccc(C)n2)CCC1=O (stereo not given)
    -1.7	15	5.1	15	0.0	1	i	-11	2.6	0.67
COc1ccc(-c2csc(N(CCc3ccccc3)C(=O)COc3ccccc3)n2)cc1
    .	.	.	.	2.0	1	.	28	0.2	0.68
c1cc2c(cc1C1CCCCC1)c1c3n2CCN=C3CCC1
    21	.	.	.	0.0	37	.	71*	0.6	0.67
Cc1cc(-c2ccc(C)c(S(=O)(=O)NCCc3ccco3)c2)on1
    1.3	2	2.0	2	5.3	0	i	9	-1.0	0.7
Cc1ccc(CNC(=O)C(=O)NCCCn2ccnc2)cc1
    10	7	-7.3	3	2.1	1	i	17	-0.1	0.64
CC(CCc1ccc(O)cc1)N(C)CCc1ccccc1 (stereo not given)
    .	.	.	.	0.3	2	.	50	2.0	0.67
CC(C)CCNC(=O)c1cccc(Cl)c1
    .	.	.	.	2.1	-3	.	-19	-0.2	0.64
COc1cccc(C(=O)O/N=C(\N)c2ccccn2)c1OC
    -5.1	2	2.6	12	3.8	4	i	6	-8.0	0.68
CC(=O)Nc1ccc(S(=O)(=O)Nc2nc3ccccc3nc2Nc2ccc3ccccc3c2)cc1
    12	27	-1.5	18	-35	-3	i	-11	0.0	0.69
CC(C)(C)OC(=O)NC(Cc1ccccc1)C(=O)NCCCC(=O)O (stereo not given)
    16	4	-1.0	9	0.3	0	i	13	0.9	0.66
O=C1OCCC1Sc1nnc(-c2ccc(O)cc2)o1 (stereo not given)
    .	.	.	.	1.3	-1	.	-1	0.0	0.66
CCCC(=O)Nc1cc(C)c(NC(=O)C23CC4CC(CC(C4)C2)C3)cn1
    .	.	.	.	2.7	-7	.	-6	0.6	0.7
O=[N+]([O-])c1cccnc1N1CCN(c2ccccc2F)CC1
    14	-34*	-0.6*	-4.6*	2.0	3	i	10	0.5	0.71
COc1cccc(OCC(=O)NNC(=O)Cc2cccs2)c1
    -0.9	4	-7.8	5	6.9	.	i	-4	0.6	0.66
COc1cc(/C=C2/NC(=O)N(c3cccc(Cl)c3)C2=O)ccc1O
    -7.5	6	-3.2	7	1.6	-6	i	-110	1.1	0.69
CC(=O)Nc1nc2cc(C(N)=O)ccc2s1
    -15	7	-2.9	0	5.1	-3	i	.	0.6	0.69
Cc1ccc(-c2csc3ncnc(NCCN4CCOCC4)c23)cc1
    .	.	.	.	0.2	-3	.	-14	-0.6	0.69
Cc1c(-c2ccc(F)cc2)[n+](=O)c(-c2ccc(F)cc2)c(C)n1[O-]
    .	.	.	.	-1.0	-5	.	-5	0.3	0.68
O=c1c2ccccc2nc(/C=C/c2ccc(O)cc2)n1CCc1ccccc1
    .	.	.	.	-0.3	23	.	15	0.3	.
COc1ccc(NC(=O)Cn2nnc(C(=O)NCc3ccccc3OC)c2N)cc1Cl
    .	.	.	.	3.0	-2	.	-18	0.2	0.74
NS(=O)(=O)c1ccc(NC(=O)COc2ccc(C(=O)c3ccc(F)cc3)cc2)cc1
    -2.8	0	12	7	4.0	0	i	-19	-0.1	0.7
O=C(Cn1ncc2c3ccccc3n(Cc3ccccc3)c2c1=O)NCCN1CCOCC1
    0.4	-15	0.8	-15	-10	2	i	6	-2.1	0.69
Nc1nnc(SCC(=O)Nc2cccnc2Cl)s1
    0.7	19	3.1	21	-0.6	1	i	-11	1.9	0.67
COc1ccc(NC(=O)CC2C(=O)N(c3ccc(OC)cc3)C(=O)N2CCN2CCN(C)CC2)cc1 (stereo not given)
    .	.	.	.	3.9	-3	.	6	1.7	0.72
Cc1ccc(N2C(=O)C3CCC(c4ccccc4)CC3C2=O)cc1 (stereo not given)
    .	.	.	.	1.7	-1	.	-32	0.0	0.67
Cn1ccnc1SCC(=O)Nc1cccc(O)c1
    2.6	12	-4.0	12	-1.3	3	i	-14	1.1	0.63
O=C(NCCCNc1ccc(C(F)(F)F)cc1[N+](=O)[O-])c1ccc(F)cc1
    2.3	.	.	.	2.1	-3	i	4	3.1	0.71
CC(C)(C)c1ccc(NC(=O)COC(=O)C2(C)CC2(Cl)Cl)cc1 (stereo not given)
    2.5	1	3.0	8	4.4	-4	i	29	0.8	0.66
Cc1ccccc1NC(=O)Cc1nc(COC(=O)/C=C/c2ccccc2)cs1
    4.0	-13	0.8	-29	5.1	.	i	-3	0.8	0.63
COC(=O)Cc1cc(=O)n(-c2nc3ccccc3s2)[nH]1
    5.0	-3	1.4	17	2.1	-6	i	-10	0.1	0.68
CCOC(=O)Cn1nnnc1CN(Cc1cccs1)Cc1cc2cc(C)ccc2[nH]c1=O
    .	.	.	.	-3.1	-2	.	11	-0.5	0.7
O=C(CSc1cn[nH]n1)Nc1ccccc1C(=O)O
    -2.7	3	6.4	6	0.5	0	i	-18	0.8	0.67
CC(Sc1nnc(-c2ccc(Cl)cc2Cl)n1Cc1ccccc1)C(=O)Nc1nccs1 (stereo not given)
    .	.	.	.	0.3	-3	.	22	-0.2	0.73
O=C(NC1CCSC1=O)c1ccc(Oc2ccc(F)cc2)nc1 (stereo not given)
    .	.	.	.	2.7	-9	.	-12	0.4	0.74
COc1ccc(OC)c(N(CC(=O)NCc2ccncc2)S(C)(=O)=O)c1
    .	.	.	.	-2.2	-3	.	14	-0.1	0.66
O=C(Nc1cccnc1)c1cccnc1
    .	.	.	.	0.3	105*	.	1	0.6	0.67
Cc1ccc(S(=O)(=O)N(Cc2ccccc2Cl)C(=O)N2CCN(C)CC2)cc1
    -4.3	12	-2.3	10	-0.2	.	i	6	0.3	0.67
O=C(NCCc1ccc(Cl)cc1)c1cccc(N2CCCC2=O)c1
    .	.	.	.	-0.4	-2	.	-10	0.5	0.63
CCNc1nc(NCC)n2c(SC(C(=O)Nc3cc(C)ccc3C)c3ccccc3)nnc2n1 (stereo not given)
    .	.	.	.	4.5	5	.	6	1.0	0.67
CC1(C)c2ccccc2N2CCC(=O)NC21/C=C/c1ccco1 (stereo not given)
    .	.	.	.	3.2	-5	.	7	-0.3	.

(cont.)
Value order: MLL AF4-AF9 inh	rRNA inh HTS	rRNA inh HTS RFP	rRNA inh HTS OD600	UCH37 DUB inh	Beta apoptosis	FGF22 binding	T cruzi inh	Bfl-1 A1 inh	Ecoli growth
COCCNC(=O)CSc1cc(-c2ccccc2)c2ccc(OC)cc2n1
    -6.1	-48	-6.3	-44	-7.5	3	i	5	1.1	0.69
COc1cccc(/C=N/Nc2ccc([N+](=O)[O-])cn2)c1O
    0.3	-28	10	-40	.	119*	i	25	-8.6	.
CC(=O)Nc1ccc(-c2nc3ccccc3o2)cc1
    3.4	5	2.3	3	-63	-4	i	-4	-5.5	0.7
COc1cccc(NC(=O)NCc2ccccn2)c1
    0.6	11	1.5	7	0.7	-8	i	-7	0.5	0.71
Cc1cc2nc(SCCOC(=O)Nc3cccc(Cl)c3)nc(C)c2cc1C
    .	.	.	.	-1.1	0	.	18	0.3	0.7
Cc1cc(C(=O)N2CCC(Cc3ccccc3)CC2)ccc1[N+](=O)[O-]
    3.1	-31*	-13*	-19*	-0.6	-6	i	11	0.5	0.65
CC1(C)Cc2c(cnn2-c2ccccc2)C(=O)/C1=N\NC(=O)c1ccncc1
    .	.	.	.	2.9	0	.	25	1.1	0.69

Three compounds already listed, arranged by the value under rRNA inh HTS OD600, low to high:
| canonical_smiles | rRNA inh HTS OD600 |
| --- | --- |
| COCCNC(=O)CSc1cc(-c2ccccc2)c2ccc(OC)cc2n1 | -44 |
| CC(=O)Nc1ccc(-c2nc3ccccc3o2)cc1 | 3 |
| COc1cccc(NC(=O)NCc2ccccn2)c1 | 7 |

The list is partial; the hit share may differ from the screen's.
